Source: PubChem (Center for Chemical Genomics, University of Michigan)
TAR Tat displ: HIV-1 TAR-Tat binding disruption; HIV-1 TAR RNA, Tat peptide displacement FRET; hits give high values; z-score (no concentration beside the values); 100,000 compounds, 0.6% hits; AID 1259389;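 note: score is relative to mean and SD of negative controls; some compounds called inactive have numbers as strong as hits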
CDC25B-CDK2 inh: human CDC25B-CDK2/CyclinA binding inhibition | 94,000 compounds, 0.72% hits | z-score (no concentration beside the values) | P30305+P24941 | HTRF CDC25B-CDK2/CyclinA binding, anti-His/anti-Flag; hits give high values;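 note: score is relative to mean and SD of negative controls; strong numbers were not always called active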
The depositor's hits bear a star; nt = not tested or not shown.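 Rule for the calls: active = z-score from 3 up in half or more of its runs; inactive = the rest.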 Not all compounds are listed (hit frequency here may not be typical).

Every second line gives: TAR Tat displ | CDC25B-CDK2 inh
> Cc1nn(Cc2ccccc2Cl)c(=N)s1
→ nt | -1.2
> COc1ccc(C2N(c3ccccn3)C(=O)C3CCCN32)cc1 (configuration not stated)
→ nt | 1.3
> O=C(O)Cc1cnc[nH]1
→ nt | -1.6
> CCCCCSc1nsc(NC(=O)CN2CC3CC(C2)c2cccc(=O)n2C3)n1 (configuration not stated)
→ -2 | nt
> COc1cc2c(cc1OC)[C@@]13CCN4CC5=CCOC6CC(=O)N2C1[C@H]6[C@H]5C[C@H]43 (some centres not stated)
→ -0.24 | nt
> O=C1C2CCCN2C(c2ccc(Cl)cc2)N1c1ccccn1 (configuration not stated)
→ nt | -0.65
> CCOc1cc(C2C(C#N)=C(N)Oc3c2c(=O)oc2ccccc32)ccc1OC(=O)c1cccs1 (configuration not stated)
→ nt | -1.8
> C[C@H]1OC(O[C@H]2[C@@H](O)CC(O[C@H]3[C@@H](O)C[C@H](O[C@H]4CC[C@]5(C)C6CC[C@]7(C)[C@@H](C8=CC(=O)OC8)[C@@H](O)C[C@]7(O)[C@@H]6CC[C@@H]5C4)O[C@@H]3C)O[C@@H]2C)C[C@H](O)C1O (some centres not stated)
→ 2.2 | nt
> O=C(c1cc2c(Cl)nc3ccccc3c2s1)N1CCC2(CC1)OCCO2
→ nt | -0.47
> CN(C)C(=O)Oc1cccc(N)c1
→ nt | -0.95
> CN1C[C@H](CO)CC2c3cccc4[nH]cc(c34)C[C@H]21 (some centres not stated)
→ -3 | nt
> CCCCCCn1c2ccc(C(=O)O)cc2c2cc(C(=O)O)ccc21
→ 1.3 | -4.4
> C[C@H]([C@H](O)CCC(C)(C)O)[C@H]1CC[C@@]2(O)C3=CC(=O)[C@@H]4C[C@@H](O)[C@@H](O)C[C@]4(C)[C@H]3CC[C@]12C
→ 1.7 | nt
> OP(O)(=S)c1ccccc1
→ nt | -0.5
> CCCN1CCc2cccc3c2[C@H]1Cc1ccc(O)c(O)c1-3
→ nt | -3.9
> OCCCNc1c2c(nc3ccccc13)CCCC2
→ -2.5 | 1.4
> CCCOC(=O)c1sc2nc3c(cc2c1N)CN(C)CC3
→ -1.7 | -1.9
> C=C(C)c1cc2cc(C(C)=O)c(O)cc2o1
→ 2.2 | nt
> C[C@@H](N)[C@@H](O)c1ccccc1
→ -1.2 | nt
> Clc1ccc(C(Cc2ccccc2)NC2CN3CCC2CC3)cc1 (configuration not stated)
→ 0.82 | -2.8

Further compounds follow:
Every second line gives: TAR Tat displ | CDC25B-CDK2 inh
> CNC(=O)Oc1cccc2cccnc12
→ -0.44 | 1
> COc1ccc(NP(=O)(OCC(F)(F)F)OCC(F)(F)F)cc1
→ nt | -3.1
> CCCN1CCC[C@@H]2Cc3nc(N)ncc3C[C@H]21
→ nt | -1.8
> N#C/C(=C\c1ccc(O)cc1)C(=O)O
→ -0.24 | nt
> C=CCOC(=O)C1=C(C)OC(N)=C(C#N)C12C(=O)Nc1ccc(Cl)cc12 (configuration not stated)
→ nt | -0.77
> Cc1ncsc1CCCl
→ nt | -0.06
> CCN(CC)CCn1c(NCc2ccc(Cl)cc2)nc2ccccc21
→ 1.2 | -1.3
> O=c1oc2ccccc2c(O)c1C(c1ccc2c(c1)OCO2)c1c(O)c2ccccc2oc1=O
→ nt | -1.5
> O=C(O)c1ccccc1-c1c2cc(Br)c(=O)cc-2oc2[c]([Hg])c(O)c(Br)cc12
→ -6.5 | nt
> Cc1ncc(CNC(=O)N(CCCl)N=O)c(N)n1
→ 1.6 | -0.73
> C#CCN1C(=O)C2(C(C(=O)OCC)=C(C)OC(N)=C2C(=O)OCC)c2ccccc21 (configuration not stated)
→ nt | -3.9
> NC1=NC(=O)C(c2ccccc2)O1 (configuration not stated)
→ 1.1 | nt
> CCC1c2cccn2-c2ccccc2CN1C(=O)Nc1ccc(Br)cc1F (configuration not stated)
→ 1.1 | nt
> CC(=O)N1c2ccccc2C(=O)C1N1CC=C(c2ccccc2)CC1 (configuration not stated)
→ 0.06 | nt
> CC(=O)c1ccc(Cl)c(-n2c(=S)[nH]c3ccccc3c2=O)c1
→ nt | -2
> c1ccc(C2(c3ccccc3)CC2C2=NCCN2)cc1 (configuration not stated)
→ nt | 2.7
> O=C(NCc1ccc(F)cc1)N1Cc2ccccc2-n2cccc2C1c1ccccc1 (configuration not stated)
→ -0.63 | nt
> CCOC(=O)c1ccc(Oc2coc3cc(OC(=O)N(C)C)ccc3c2=O)cc1
→ 1.4 | -1.9
> CCN(CC)C(=O)c1ccc(N2C(=O)C(C)(C)CS2(=O)=O)cc1
→ 0.66 | -0.6
> Cc1cccc(NC(c2ccc(N(C)C)cc2)c2ccc3ccc(C)nc3c2O)n1 (configuration not stated)
→ 0.8 | 1.3

Going on with the list:
Every second line gives: TAR Tat displ | CDC25B-CDK2 inh
> Cc1nn(-c2ccc(F)cc2)c2c1C(c1cccc(F)c1F)SCC(=O)N2 (configuration not stated)
→ -0.07 | 0.11
> Cc1nnc2n1-c1ccc(Br)cc1C(c1ccccc1Cl)=NC2
→ nt | -0.44
> CCNc1nc(Cl)nc(NC(C)C)n1
→ 1.1 | nt
> O=C(Nc1ccncc1)c1c(O)c2c(n(Cc3ccco3)c1=O)CCCC2
→ nt | -1.6
> COc1cc2c(cc1OC)C(C(=O)NC(C)C)C1CCCCN1C2=O (configuration not stated)
→ -0.11 | -1
> O=C(O)CCCOc1ccc(Cl)cc1Cl
→ 0.31 | nt
> Cc1cc(OC(=O)c2cccs2)c2c3c(c(=O)oc2c1)CCCC3
→ nt | -1.3
> CCc1ccc(-n2nc(C)c3c2NC(=O)CSC3c2ccc(C(=O)O)cc2)cc1 (configuration not stated)
→ 2.1 | -1.1
> COc1cc([C@@H]2c3cc4c(cc3[C@@H](O)C3COC(=O)C32)OCO4)cc(OC)c1O (some centres not stated)
→ 1.1 | nt
> N#CCc1cccc(CC#N)c1
→ nt | -0.92
> Cc1cc([C@@H]2CCCN2C)on1
→ nt | 0.72
> CCCCCCCCCc1ccc(O)cc1
→ 1.2 | nt
> C=C(C)C1Cc2c(ccc3c(=O)c4c(oc23)COc2cc(OC)c(OC)cc2-4)O1 (configuration not stated)
→ 1.7 | nt
> COc1cccc2c1cc([N+](=O)[O-])c1c(C(=O)O)cc3c(c12)OCO3
→ 9.2 | nt
> Cc1ccc(C2c3cccn3-c3ccccc3CN2S(=O)(=O)c2ccc3c(c2)oc(=O)n3C)cc1 (configuration not stated)
→ 1.6 | nt
> CCN1C[C@]2(C)CC[C@H](OC)[C@]34C2[C@H](OC(C)=O)[C@@]2(OCO[C@@]25CC(OC)[C@H]2C[C@]3(O)C5[C@H]2OC)C14 (some centres not stated)
→ 2.8 | nt
> CN(C)CCCNc1ccc([N+](=O)[O-])c2cccnc12
→ nt | 0.58
> CC(=O)c1c(C)n(C(C)C)c2ccc(O)cc12
→ nt | -0.16
> COc1cc(CNCCc2c[nH]c3ccccc23)cc(OC)c1
→ 0.37 | 3.8
> O=C(Nc1cccnc1)c1c(O)c2ccccc2n(Cc2ccccc2)c1=O
→ nt | -1.2

Remaining list, next part
Every second line gives: TAR Tat displ | CDC25B-CDK2 inh
> CCc1c(C(=O)OC)c2cc(O)ccc2n1Cc1ccccc1
→ nt | -2
> Cc1ccc(C2NC(=S)NC(c3ccc(C)cc3)C23C(=O)NC(=O)NC3=O)cc1 (configuration not stated)
→ nt | 0.14
> COP(=O)(OC)OC(Br)C(Cl)(Cl)Br (configuration not stated)
→ -0.67 | nt
> COCc1cc(C2SCC(=O)Nc3c2c(C)nn3C2CCOC(C)(C)C2)ccc1OC (configuration not stated)
→ -0.94 | -1.6
> O=[N+]([O-])N=S(c1ccccc1)c1ccccc1
→ nt | -2
> CNc1ccc(C(=O)CC(O)CCC(C)C2OC(=O)CC(O)CC(=O)CC(O)CC(O)CC(O)CC(O)CC3(O)CC(O)C(C(=O)OC)C(CC(O[C@@H]4O[C@H](C)[C@@H](O)[C@H](N)[C@@H]4O)/C=C/C=C/C=C/C=C/C=C/C=C/C=C/C2C)O3)cc1 (some centres not stated)
→ 2.3 | nt
> CCCCCc1cc(O)cc(OCCCCCCCCCCC(=O)NC2CC2)c1
→ 0.17 | nt
> c1cnc2c(c1)nnn2C1CCNCC1
→ 1.7 | nt
> Cc1nn(-c2cccc(Cl)c2)c2c1C(c1ccsc1)SCC(=O)N2 (configuration not stated)
→ 2.4 | -1.7
> Cc1ccc(S(=O)(=O)N[C@@H](CCCCN)C(=O)CCl)cc1
→ 1.2 | -1.5
> CC(C)C1c2cccn2-c2ccccc2CN1C(=O)Nc1cccc(Br)c1 (configuration not stated)
→ 1.4 | nt
> Nc1nonc1-c1nonc1N
→ nt | -2.2
> CCCCn1cc(C(=O)c2cccc3ccccc23)c2ccccc21
→ 1.5 | nt
> CCOc1ccccc1C1SCC(=O)Nc2c1c(C)nn2-c1nc2ccccc2s1 (configuration not stated)
→ 0.11 | -2.6
> COc1ccc(NC(=O)N2Cc3ccccc3-n3cccc3C23CCN(C)CC3)cc1
→ 0.82 | -0.95
> CN1CCN(Cc2nc3ccccc3n2C)CC1
→ 0.27 | -1.2
> COc1cccc(CNCCc2ccc3c(c2)OCO3)c1OC
→ -0.47 | -1.4
> CC(C)n1[nH]c(=O)c2c1NC(=O)CSC2c1ccc(F)cc1 (configuration not stated)
→ 3.1 | -1.6
> COc1ccc2c(c1OC)C(=O)O[C@@H]2[C@@H]1c2cc3c(cc2CCN1C)OCO3
→ 0.83 | nt
> CN(C)CCN(C(=O)COc1ccc(Cl)cc1)c1nc2cc3c(cc2s1)OCO3
→ 0.91 | nt

The listing continues.
Every second line gives: TAR Tat displ | CDC25B-CDK2 inh
> c1ccc(C2=NN(c3ccccc3)N(c3ccccc3)N2)cc1
→ nt | 0.03
> CCc1ccc(-n2nc(C)c3c2NC(=O)CSC3c2ccc(C(=O)OC)cc2)cc1 (configuration not stated)
→ 1.3 | 0.74
> Cc1cc(=O)oc2cc(OC(=O)N(C)C)c(Cl)cc12
→ nt | -1.9
> C[C@@H]1O[C@H](C[N+](C)(C)C)C[C@H]1O
→ 2.8 | -1
> Oc1cccc2cccnc12
→ 2.9 | nt
> COc1cc(CNCCc2c[nH]c3ccccc23)cc(OC)c1OC
→ nt | -1.6
> COc1ccc(CCNCc2ccc(OC)c(OC)c2)cc1OC
→ -1.2 | -0.56
> CC(C)CCn1cc(C(=O)c2cccc3ccccc23)c2ccccc21
→ 1.5 | nt
> COc1ccc(Oc2c(C)oc3cc(OC(=O)N(C)C)ccc3c2=O)cc1
→ 0.51 | -1.6
> c1ccc(C2CN3CCC2CC3)cc1 (configuration not stated)
→ 0.87 | -1.5
> COc1ccc(-n2nc(C)c3c2NC(=O)CSC3c2ccsc2)cc1 (configuration not stated)
→ -0.45 | -1.5
> CC(=O)C1=NN(c2ccccc2)C2c3cccc4cccc(c34)C12 (configuration not stated)
→ nt | -1.8
> C[C@]12C=CC(=O)C=C1CCC1C2CC[C@]2(C)C(=O)CCC12 (some centres not stated)
→ 4.3 | nt
> CN1C2CCC1CC(OC(=O)C(c1ccccc1)c1ccccc1)C2 (configuration not stated)
→ nt | -1
> COc1cc2c(cc1O)CCNC2C (configuration not stated)
→ -0.12 | nt
> Cc1cc(Br)cc(Br)c1
→ nt | -1.4
> CN1CC=C(c2c[nH]c3ccccc23)CC1
→ 0.88 | nt
> Cc1ccccc1-n1nc(C)c2c1NC(=O)CSC2c1ccc(N(C)C)cc1 (configuration not stated)
→ 1.4 | -2.3
> CNC(Cc1c[nH]c2ccccc12)C(=O)O (configuration not stated)
→ 1.4 | nt
> CCCCCCC1C(C#N)=C(N)Oc2c1c(=O)oc1ccccc21 (configuration not stated)
→ nt | 0.04

Next records follow:
Every second line gives: TAR Tat displ | CDC25B-CDK2 inh
> n1[nH]nc2c1Nc1nonc1N2
→ nt | -3.1
> Cc1nn(-c2nc3ccccc3s2)c2c1C(c1ccc(O)cc1)SCC(=O)N2 (configuration not stated)
→ 0.49 | -1.2
> CNCCc1c[nH]c2ccc(CS(=O)(=O)O)cc12
→ nt | -0.83
> O=c1c2ccccc2nc(-c2cccs2)n1-c1ccc(Br)cc1
→ 0.53 | -1.1
> C[C@]12CC[C@H](O)CC1=CC[C@@H]1[C@@H]2CC[C@@]2(C)[C@H]1CC[C@]2(C)O
→ 2.6 | nt
> C=C1N2CCC(CC2)C1(O)c1ccc(C)cc1 (configuration not stated)
→ 1.1 | -0.4
> C=CCn1c(C)c(C(=O)OCC)c2cc(O)ccc21
→ 2.2 | -3.6
> Cc1ccccc1C1N(c2ccccn2)C(=O)C2CCCN21 (configuration not stated)
→ nt | -0.92
> Cc1nn(-c2ccc(Cl)cc2)c2c1C(c1cc(F)ccc1F)SCC(=O)N2 (configuration not stated)
→ 0.13 | -0.79
> COc1ccc(C2N3CCCN23)cc1Br (configuration not stated)
→ 0.31 | 1.9
> Cc1ccc(-n2nc(C)c3c2NC(=O)CSC3c2ccsc2)cc1Cl (configuration not stated)
→ 0.97 | -1.8
> C[C@@H]1NC(=O)C2CCCN2C(=O)[C@H](CCCCCCC(=O)[C@@H]2CO2)NC(=O)[C@@H](C)NC1=O (some centres not stated)
→ 1.4 | nt
> O=c1oc2ccccc2c2c1C(c1ccccc1)c1c(c3ccccc3oc1=O)O2
→ nt | -1.1
> CCCCOC(=O)C1=C(N)OC2=C(C(=O)CC(C)(C)C2)C12C(=O)Nc1ccc(Br)cc12 (configuration not stated)
→ nt | -2.5
> Cc1cc(C)nc(-n2nc(C)c3c2NC(=O)CSC3c2cccc(O)c2)n1 (configuration not stated)
→ -0.58 | -0.96

Five compounds out of the list, sorted by molecular weight, descending:
Every second line gives: TAR Tat displ | CDC25B-CDK2 inh
> CCCCOC(=O)C1=C(N)OC2=C(C(=O)CC(C)(C)C2)C12C(=O)Nc1ccc(Br)cc12 (configuration not stated)
→ nt | -2.5
> Cc1nn(-c2nc3ccccc3s2)c2c1C(c1ccc(O)cc1)SCC(=O)N2 (configuration not stated)
→ 0.49 | -1.2
> Cc1nn(-c2ccc(Cl)cc2)c2c1C(c1cc(F)ccc1F)SCC(=O)N2 (configuration not stated)
→ 0.13 | -0.79
> COc1ccc(C2N3CCCN23)cc1Br (configuration not stated)
→ 0.31 | 1.9
> CNCCc1c[nH]c2ccc(CS(=O)(=O)O)cc12
→ nt | -0.83
